Ecoli growth: E. coli growth inhibition, primary screen, OD600 | Escherichia coli growth, 23 h; active compounds read low | actives 0.21% (n = 330,000) | OD600 absorbance (test concentration not listed);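 active = OD600 absorbance below the run mean of sample wells minus 3.6 SD, in any replicate, cut at about 0.56 in these data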;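 also: stock transfer was 300 nL into about 60 µL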
Ecoli rRNA inh: reduced GFP signal of wild-type E. coli, primary screen, bacterial rRNA inhibitor project, GFP/RFP fluorescence, OD600, single point. GFP signal change (wild-type ribosome), % (concentration not given with the values). AID 720706, 2013. actives 1.6% (n = 350,000). E. coli WT GFP vs humanized-ribosome RFP mutants, 24 h; active compounds read low; DMSO median 0, no signal -100;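 active = significant combined selectivity score with lowered wild-type GFP, culture density cut under 30%, mutant RFP and density less affected; inactive = any of these conditions unmet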; also: one replicate is shown; some compounds called inactive have numbers as strong as hits
HNF4A DNA FP: change in binding of human HNF4A to DNA, primary screen, biochemical, fluorescence polarization, FITC-DNA. Hepatocyte nuclear factor 4-alpha (Homo sapiens), P41235. 1 h. activity change, % at 10 µM. actives 0.3% (n = 360,000). AID 1224865, 2016; in the data active = activity change above about 30%, passing the limit was not always enough;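 also: controls were the assay level and a saturating level of protein; the project sought stronger binding though the title names inhibitors; some compounds called inactive have numbers as strong as hits; positive values seem to mean higher polarization but the record does not say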
UCH37 inh: inhibitors of human UCH37 deubiquitinase, primary screen, biochemical, Ub-AMC cleavage, fluorescence; Ubiquitin carboxyl-terminal hydrolase isozyme L5 (Homo sapiens), Q9Y5K5; purified proteasome/UCH37; inhibition, % (no concentration beside the values); actives 0.33% (n = 330,000);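 active = mean of two replicates above 20%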;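 also: 0% = compound-free wells with enzyme and 100% = wells lacking proteasome; stock transfer was 100 nL into about 20 µL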
Target sequence (Q9Y5K5 whole entry, looked up): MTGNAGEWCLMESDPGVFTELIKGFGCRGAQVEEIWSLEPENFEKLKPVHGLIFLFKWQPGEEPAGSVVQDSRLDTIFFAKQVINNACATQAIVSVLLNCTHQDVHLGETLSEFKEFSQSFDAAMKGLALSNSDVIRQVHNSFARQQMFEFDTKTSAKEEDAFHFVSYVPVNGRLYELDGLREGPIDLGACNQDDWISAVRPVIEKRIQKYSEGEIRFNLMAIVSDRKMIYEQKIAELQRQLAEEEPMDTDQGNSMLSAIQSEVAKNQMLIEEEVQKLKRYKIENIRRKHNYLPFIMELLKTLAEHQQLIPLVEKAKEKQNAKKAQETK
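Material: human UCH37 enzyme supplied as purified proteasome complex. Measure: % inhibition of Ub-AMC cleavage fluorescence. Medium: pH 7.4 Tris-HCl (50 mM) with ovalbumin, ATP-MgCl2, DTT. Times: 30 min preincubation with enzyme, 25 min cleavage at room temperature. Detection: AMC fluorescence intensity at 355/460 nm.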
ALR inh: inhibitors of human ALR sulfhydryl oxidase, primary screen, biochemical, H2O2 detection, HRP-luminol luminescence, single point | actives 3.8% (n = 290,000) | FAD-linked sulfhydryl oxidase ALR (Homo sapiens), P55789 | purified ALR, DTT oxidation | AID 485317, 2010 | inhibition, % (no concentration beside the values);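 active = mean and each replicate at 75% or more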;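 also: stock transfer was 7.5 nL into about 7.5 µL; 0% = neutral wells and 100% = wells with inactivated enzyme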
Target sequence (P55789 whole entry, looked up): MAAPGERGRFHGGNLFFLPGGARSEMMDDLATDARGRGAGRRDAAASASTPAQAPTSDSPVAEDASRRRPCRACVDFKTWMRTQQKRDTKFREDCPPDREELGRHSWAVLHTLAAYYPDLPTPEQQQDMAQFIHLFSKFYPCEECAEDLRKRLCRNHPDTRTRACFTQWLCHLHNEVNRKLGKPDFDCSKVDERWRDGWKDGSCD
Beta2AR agonist: beta2AR agonists driving receptor internalization, primary screen, cell-based, FAP fluorogen, flow cytometry; Am2.2-beta2AR cells; reference of the scale not given here; response, % (test concentration not listed); AID 504454, 2011; actives 0.43% (n = 340,000); Beta-2 adrenergic receptor (Homo sapiens), P07550;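 active = response above a set limit, near 3 SD of response in nonfluorescent compounds, cut at about 42% in these data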;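 also: stock transfer was 100 nL into about 11 µL; a reference agonist was the positive control; negative values mostly stem from fluorescent compounds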
FGF22 binding: binders of human FGF22 protein, primary screen, FGF22 synaptogenesis inhibitor project, biophysical, thermal shift, single point. Fibroblast growth factor 22 (Homo sapiens), Q9HCT0. actives 1.5% (n = 340,000). calls only at 9.99 µM. recombinant FGF22 thermal shift, SYPRO orange fluorescence; percent of sucrose octasulfate shift, DMSO zero;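 active = melting point raised past a set limit in the mean and every replicate; three in four hits are not shown here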
Target sequence (Q9HCT0 whole entry, looked up): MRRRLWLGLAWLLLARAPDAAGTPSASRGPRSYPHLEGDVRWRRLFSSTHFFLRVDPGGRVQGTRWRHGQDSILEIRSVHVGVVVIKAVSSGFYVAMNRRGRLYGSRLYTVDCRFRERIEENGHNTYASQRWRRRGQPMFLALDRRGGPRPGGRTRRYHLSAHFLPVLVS
Ecoli rRNA inh OD600: second read-out of Ecoli rRNA inh, no call of its own (marks repeat the call); OD600 change, %; measured here: OD600 growth;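 optical density of the mix in the first replicate; 0 = DMSO median and -100 = no signal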
Ecoli rRNA inh RFP: second read-out of Ecoli rRNA inh, no call of its own (marks repeat the call); RFP signal change, %; measured here: RFP humanized mutant strains;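 first replicate; 0 = DMSO median and -100 = no signal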
Numbers without * were called inactive; i = inactive; / = no result given. This is a subset. The share of hits here may be higher or lower than overall.

Under each structure: Ecoli growth | Ecoli rRNA inh | Ecoli rRNA inh OD600 | Ecoli rRNA inh RFP | HNF4A DNA FP | UCH37 inh | ALR inh | Beta2AR agonist | FGF22 binding
O=C(O)c1ccc(S(=O)(=O)N2CCCCCCC2)cc1
 : / | 1.8 | 6.4 | -0.6 | 5.8 | / | / | / | i
CC(=O)Oc1ccc2c3c(c(=O)oc2c1C)CCCC3
 : 0.688 | -7.1 | -8.3 | -5.0 | -0.9 | -56.6 | -1.9 | 9.2 | i
N#Cc1nn(-c2ccccc2)nc1N1CCCCC1
 : 0.69 | / | / | / | 2.3 | -194.0 | -4.1 | 7.0 | /
CC(=O)OCC1(C)CN(c2ccccc2)N(C(=O)c2ccc(F)cc2)C1=O (stereo not drawn)
 : 0.702 | 15.3 | 14.1 | 1.0 | -5.0 | 1.4 | 10.7 | -0.6 | i
CCCC1CC(=O)NC1(C(=O)OCC)C(=O)OCC (stereo not drawn)
 : 0.693 | 4.7 | 21.9 | -6.0 | 4.0 | 0.0 | / | 1.8 | i
CCC1Oc2ccc(C)cc2N(CC(=O)N(Cc2ccc(C)o2)C2CC(C)(C)NC(C)(C)C2)C1=O (stereo not drawn)
 : 0.72 | / | / | / | 1.5 | 1.8 | -5.5 | -0.1 | /
Cc1cc(C)c2nc(N3CCCC(C(=O)NCCN4CCOCC4)C3)sc2c1 (stereo not drawn)
 : 0.707 | 7.3 | 6.6 | -1.2 | -0.7 | 6.3 | 3.1 | 9.9 | i
CCCOc1ccc(CNC(=O)C2CCN(C(=O)N3CCOc4ccccc43)CC2)cc1
 : 0.755 | 1.4 | -12.3 | 2.2 | -0.7 | -0.4 | -28.9 | -12.0 | i
O=C(CSc1nc2ncc(Cl)cc2[nH]1)N1CCOCC1
 : 0.707 | 12.6 | 15.9 | -1.0 | 4.5 | 0.4 | -0.5 | / | i
COc1ccc(-c2nnn(CC(=O)NCc3ccccc3)n2)cc1OC
 : 0.692 | / | / | / | -1.4 | 1.1 | -2.4 | 1.6 | /
O=C1N[C@@H](c2ccccc2)COC(=O)[C@@H](Cc2ccc(F)cc2)CC/C=C/C[C@@H]1CC(=O)N(CCO)Cc1ccccc1
 : 0.727 | -2.7 | -6.4 | -5.5 | 2.7 | -0.6 | / | 6.8 | i
Cc1ccc(CNC(=O)COc2ccc(C(=O)c3ccc(F)cc3)cc2)cc1
 : 0.704 | / | / | / | 1.4 | 4.2 | 5.0 | -9.1 | /
CCN(CCCNC(=O)CCNC(=O)Cn1cnc2ccccc2c1=O)c1cccc(C)c1
 : 0.748 | / | / | / | 0.5 | -0.5 | 99.3* | 1.6 | /
Nc1nnc(CC(=O)N/N=C/c2ccc(-c3ccccc3)o2)s1
 : / | 1.8 | 6.3 | -1.5 | 2.0 | / | 32.4 | 10.9 | i
O=c1c2ccccc2nc(SCc2nc3ccccc3s2)n1CCCO
 : 0.702 | / | / | / | 5.8 | -5.7 | -17.2 | -15.3 | /
CCOc1ccc(Br)cc1S(=O)(=O)NCc1ccc(S(N)(=O)=O)cc1
 : 0.703 | -8.7 | 3.2 | 1.9 | 4.5 | 0.3 | -0.7 | -3.6 | i
COc1ccc(SCc2noc(C(=O)NC(C)C)c2C(=O)O)cc1
 : 0.687 | 7.2 | 2.7 | -1.1 | -4.4 | 1.4 | -5.6 | -5.0 | i
O=C(c1nc2ccccn2c1CN1CCCC(O)C1)N1CCN(C2CCCCC2)CC1 (stereo not drawn)
 : 0.628 | 9.7 | 14.9 | 2.5 | -6.1 | -4.6 | 0.2 | 6.8 | i
O=C(O)c1cn(-c2ccccc2)nc1C(=O)O
 : 0.788 | / | / | / | 1.1 | 1.0 | -23.8 | -4.8 | /
CCCc1cc(C(=O)N2CCCC(N3CCN(c4ccccc4F)CC3)C2)n(C)n1 (stereo not drawn)
 : 0.718 | 6.7 | 3.5 | 3.7 | 4.3 | 4.4 | -5.2 | -0.5 | i
CCOC(=O)c1cccc(NC(=O)CSc2nnc(COc3ccc(Cl)cc3)o2)c1
 : 0.73 | / | / | / | 1.5 | 2.1 | -3.5 | -7.4 | /
COC(=O)C1=C(C)N(Cc2ccccc2)C(=NCCc2cccnc2)N[C@H]1c1ccc(Br)cc1
 : / | / | / | / | -6.1 | 1.1 | -2.1 | 47.2* | /
CCOC(=O)c1c(C)[nH]c(C)c1C(=O)COC(=O)c1ccccc1O
 : 0.667 | / | / | / | -0.6 | 1.6 | 2.9 | -0.8 | /
Cc1cc(C)n(CCNS(=O)(=O)c2ccc(C)c(C)c2)n1
 : 0.657 | 5.0 | 7.1 | 1.9 | -1.8 | 0.3 | -4.6 | 4.5 | i
CCN(CC#CCC1(O)c2ccccc2-c2ccccc21)C(C)C
 : 0.699 | / | / | / | -0.6 | 1.8 | 0.1 | 5.6 | /
CCC1CCCCN1C(=O)COC(=O)c1cc(C)nc2ccccc12 (stereo not drawn)
 : 0.697 | -14.4 | -11.2 | -6.0 | -3.0 | -6.8 | -5.8 | -1.7 | i
COc1cc(OC)nc(NC(=O)COC(=O)c2cccc(Cl)c2)n1
 : 0.64 | 22.0 | 15.3 | 1.9 | -1.2 | 3.3 | -5.4 | 1.4 | i
COc1cc2ccccc2cc1C(=O)NC1CCCCC1
 : 0.675 | -27.9* | -14.8* | 0.5* | -1.5 | -5.8 | / | -3.7 | i
COC(=O)[C@@]12CCCCN1[C@H](c1ccc(-c3cc(C(C)=O)cs3)cc1)[C@H]1C(=O)N(C)C(=O)[C@H]12
 : / | 4.6 | -8.5 | -4.2 | -2.8 | 4.1 | 1.5 | 8.1 | i
CC1(C)CC(C(=O)Nc2nccs2)CCO1 (stereo not drawn)
 : 0.762 | / | / | / | -0.8 | 4.3 | -4.1 | -16.3 | /

Ordered by value in Ecoli rRNA inh OD600 (descending): five from the list above
compound	Ecoli rRNA inh OD600
COc1cc(OC)nc(NC(=O)COC(=O)c2cccc(Cl)c2)n1	15.3
Cc1cc(C)n(CCNS(=O)(=O)c2ccc(C)c(C)c2)n1	7.1
CCCc1cc(C(=O)N2CCCC(N3CCN(c4ccccc4F)CC3)C2)n(C)n1 (stereo not drawn)	3.5
CCOc1ccc(Br)cc1S(=O)(=O)NCc1ccc(S(N)(=O)=O)cc1	3.2
COc1cc2ccccc2cc1C(=O)NC1CCCCC1	-14.8*

The listing picks up, starting 2 compounds before the break.
Under each structure: Ecoli growth | Ecoli rRNA inh | Ecoli rRNA inh OD600 | Ecoli rRNA inh RFP | HNF4A DNA FP | UCH37 inh | ALR inh | Beta2AR agonist | FGF22 binding
COC(=O)[C@@]12CCCCN1[C@H](c1ccc(-c3cc(C(C)=O)cs3)cc1)[C@H]1C(=O)N(C)C(=O)[C@H]12
 : / | 4.6 | -8.5 | -4.2 | -2.8 | 4.1 | 1.5 | 8.1 | i
CC1(C)CC(C(=O)Nc2nccs2)CCO1 (stereo not drawn)
 : 0.762 | / | / | / | -0.8 | 4.3 | -4.1 | -16.3 | /
O=C(CSc1nnc(-c2cccs2)n1CC1CCCO1)c1cc2ccccc2o1 (stereo not drawn)
 : 0.675 | / | / | / | 7.3 | 2.1 | -0.1 | -8.0 | /
Cc1ccc(-c2noc(CCC(=O)NCC3CCCO3)n2)cc1 (stereo not drawn)
 : 0.738 | / | / | / | -4.5 | 2.8 | -2.2 | -3.0 | /
OC(c1cccc(Cl)c1)c1ncc(-c2cccc3ccccc23)[nH]1 (stereo not drawn)
 : / | -30.1 | -72.2 | -2.9 | 1.9 | / | / | / | /
C/C(=N/OC(=O)c1ccc(C(F)(F)F)cc1)c1oc(C)nc1C
 : / | / | / | / | 1.5 | / | -7.5 | -0.7 | i
O=C(COc1ccc(S(=O)(=O)N2CCCC2)cc1)N1CCN(c2ccccc2F)CC1
 : 0.7 | -3.8 | -13.7 | -1.6 | 0.4 | -0.5 | -1.8 | -2.6 | i
COCCN(C(=O)CC1C(=O)NCCN1Cc1ccc(-c2ccccc2)cc1)C(C)C (stereo not drawn)
 : 0.647 | 0.5 | -7.8 | 7.7 | 0.7 | 0.3 | -26.2 | -4.8 | i
N#Cc1nc(-c2ccco2)oc1N1CCN(c2cccc(Cl)c2)CC1
 : 0.743 | / | / | / | -1.2 | 0.5 | -2.1 | -7.7 | /
CN(C)CCNc1ncnc2c1ncn2[C@H]1CN(Cc2ccc3c(c2)OCO3)C[C@@H](CO)O1
 : / | -4.5 | -3.5 | -3.3 | 2.3 | / | / | / | i
COCCN1CCN(C(=O)C2CCC(=O)N(CCCc3ccccc3)C2)CC1 (stereo not drawn)
 : 0.669 | 17.9 | 11.3 | -1.6 | 5.4 | 2.7 | -9.0 | 5.7 | i
CC(=O)c1sc2nc(C)cc(C)c2c1N
 : 0.702 | / | / | / | 4.0 | -112.3 | / | 17.6 | /
CCCc1cc(=O)oc2cc(C)cc(OCC(=O)NCc3ccncc3)c12
 : 0.689 | -16.4 | -20.5 | 0.3 | 0.5 | -110.4 | -1.1 | -3.7 | i
COc1cc(NC(=O)C(C)N2CCN(C(=O)C3CC3)CC2)cc(OC)c1 (stereo not drawn)
 : 0.668 | 1.2 | 9.9 | -1.6 | -1.0 | 1.4 | -1.5 | 1.3 | i
COc1ccc(-c2ccc([C@H]3[C@H]4C=CC[C@@H](C)[C@@H]4C(=O)N3Cc3ccccc3)c(F)c2)cc1
 : / | 13.0 | 6.2 | -13.7 | 1.6 | -1.4 | -5.6 | 7.2 | i
Cc1ccc(S(=O)(=O)Nc2ccc(-c3nc4ccc(C)cc4s3)cc2)cc1
 : 0.668 | 7.6 | 5.1 | -4.0 | 3.6 | -121.0 | -2.8 | 8.3 | i
CN(C)c1ccc2c3c(ccc(N(C)C)c13)C(=O)OC2
 : 0.658 | -0.1 | 5.0 | 49.1 | 0.8 | 6.0 | 79.8* | 0.4 | i
O=C(NC1CCN(Cc2ccccc2)CC1)c1ccc(CS(=O)c2ccc(F)cc2)o1 (stereo not drawn)
 : 0.701 | 11.2 | 1.5 | 3.4 | 1.3 | 1.8 | -0.7 | 1.6 | i
COc1ccc2c(=O)c(C(=O)O)c(-c3ccc4c(c3)OCO4)n(C)c2c1
 : 0.675 | / | / | / | 0.7 | -47.8 | -12.5 | 1.4 | /
CCn1cc(S(=O)(=O)NCc2ccccc2Br)cn1
 : 0.71 | 2.4 | 11.8 | 1.2 | 1.6 | 3.8 | 0.4 | 3.9 | i
CCCCn1c(CCC)nc([N+](=O)[O-])c1Sc1ccc(Cl)cn1
 : 0.736 | / | / | / | -0.1 | 6.6 | / | 1.9 | /
N#CCCN=C(NS(=O)(=O)c1ccccc1)c1ccccc1
 : 0.691 | 7.0 | 8.0 | 0.6 | -6.1 | 0.1 | / | 3.2 | i
COc1ccc(-c2cc(=O)n(-c3ccc([N+](=O)[O-])cc3)[nH]2)cc1
 : 0.667 | / | / | / | -1.4 | 10.5 | -3.4 | 12.1 | /
O=C(COC(=O)c1ccccc1C(=O)N1CCN(c2ccccc2)CC1)Nc1ccc(F)cc1
 : 0.738 | / | / | / | -0.5 | -1.0 | 17.1 | 6.3 | /
